H5N1 CPE: MDCK cell protection from H5N1 avian flu; cytopathic effect, luminescence, 72 h; hits give high values; no value below 0 was filed and about half of the inactive calls have no number; reference of the scale not given here; inhibition, % at 50 µM; 96,000 tested, 0.07% active; in the data active = inhibition above about 25%
* hit, by the source's call; i = inactive. A portion of the library, so the mix of outcomes need not match the whole.

SMILES	H5N1 CPE
CCOc1ccccc1Oc1cn[nH]c1-c1ccc(OC)cc1O	i
O=S(=O)(NC1CCCCC1NS(=O)(=O)c1ccc(F)cc1)c1ccc(F)cc1 (configuration not stated)	i
N#Cc1ccc(COc2ccc(CCO)cc2-n2nc3ccccc3n2)cc1	2.2
CCn1c2ccccc2c2cc(N=C3SC(CC(=O)Nc4ccccc4OC)C(=O)N3C)ccc21 (configuration not stated)	1.0
O=C(c1ccc(COc2c(F)c(F)c(F)c(F)c2F)o1)N1CCOCC1	0.2
OC(COCC1COc2ccccc2O1)CN1CCN(c2ccccc2)CC1 (configuration not stated)	i
CC(=O)Nc1ccc(S(=O)(=O)NC2(C(F)(F)F)NC(=O)N(C3CCCC3)C2=O)cc1 (configuration not stated)	0.8
CCOc1ccc(OCCCC(=O)O)cc1	i
O=C(NCc1cccs1)C1CCCN(S(=O)(=O)c2cccs2)C1 (configuration not stated)	1.6
C=CCNC(=O)C1=NOC(CNC(=O)c2c(-c3ccccc3Cl)noc2C)C1 (configuration not stated)	1.2
N#Cc1cc(-c2ccccc2)cnc1Cl	0.8
FC(F)(F)c1ccc2c(c1)nc1n2CCCC1	i
COc1ccc(OCCC(=O)OCc2c(C)noc2C)cc1	1.6
CCC(=O)OCc1cc2cccc(C)c2[nH]c1=O	0.2
Clc1ccc2oc(-c3ccccc3)nc2c1	i
Cc1cc(C(=O)N2CCc3ccccc32)n(-c2ccccc2)n1	i
CCOc1ccc(Oc2nc(NCC(C)C)nc(N(C)C)n2)nn1	0.1
COC(=O)c1[nH]c2c(c1C)C(=O)CC(c1ccccc1)C2 (configuration not stated)	i
Cc1ccc(C)c(OCC(=O)N/N=C/c2c(C)nn(-c3ccccc3)c2Cl)c1	0.6
O=C(NCCOc1cccc(Cl)c1Cl)c1cc(-n2cnnc2)ccc1Cl	0.6
O=C(CSc1ncnc2c1oc1ccccc12)N1CCCc2ccccc21	1.8
COc1ccc(OC)c(NC(=S)N2CCN(C/C=C/c3ccccc3)CC2)c1	i
C#CCOc1c(Br)cc(/C=N\NC(=O)CN2CCOCC2)cc1OCC	0.6
Oc1c(C(c2ccco2)N2CCN(C(c3ccccc3)c3ccccc3)CC2)sc2ncnn12 (configuration not stated)	3.3

Another view of some results above.
canonical_smiles | H5N1 CPE
COC(=O)c1[nH]c2c(c1C)C(=O)CC(c1ccccc1)C2 (configuration not stated) | i
Cc1ccc(C)c(OCC(=O)N/N=C/c2c(C)nn(-c3ccccc3)c2Cl)c1 | 0.6

(next part)
SMILES	H5N1 CPE
CC1(C)CC(=O)C(C(=S)Nc2ccccc2)=C(NCCN2CCOCC2)C1	i
CCN(CC)c1ccc(C2C(C(=O)OC(C)C)C(=O)CC(C)(O)C2C(=O)OC(C)C)cc1 (configuration not stated)	i
O=C(NCc1cccs1)c1ccc(N2CCCC2=O)cc1	1.2
O=C(CSc1nnc(-c2cccs2)n1-c1ccccc1)NCC1CCCO1 (configuration not stated)	0.4
Cc1noc(C)c1S(=O)(=O)N1CCC(C(=O)N2CCN(c3ccc(F)cc3)CC2)CC1	0.2
Cc1ccc(-n2nnnc2SC(C)C(=O)Nc2ccc(Cl)cn2)cc1 (configuration not stated)	i
COc1ccc(C(c2c(O)ccc3ccccc23)N2CCOCC2)c(OC)c1 (configuration not stated)	i
O=C(NCCN1CCOCC1)c1cc2sccc2n1Cc1ccc(F)cc1	i
COc1ccc(-c2nn(C)c3sc(C(=O)NCc4ccco4)cc23)cc1OC	i
Cc1ccccc1OCC(=O)Nc1ccc2c(c1)OCO2	i
Cn1c(=O)c2cc(S(=O)(=O)N3CCC(c4ccccc4)CC3)ccc2n(C)c1=O	0.2
O=C(Nc1cccc([N+](=O)[O-])c1)c1ccc2nc(N3C(=O)CCC3=O)sc2c1	2.4
COc1ccc(N(CC(=O)NC2CCCCC2)S(=O)(=O)c2cccnc2)cc1	1.3
O=[N+]([O-])c1ccc(C2CCCC/C2=N\OCc2cccc(F)c2)c([N+](=O)[O-])c1 (configuration not stated)	4.0
COc1cc(CN2CCCC(C)C2)cc([N+](=O)[O-])c1O (configuration not stated)	0.9
Fc1ccc(CO/N=C/C2=C(Cl)c3ccccc3CC2)cc1	i
O=C1Nc2cc(Cl)cnc2N2CCCC12 (configuration not stated)	1.9
CCOc1ccc(N2CC(C(=O)N3CCc4ccccc4C3)CC2=O)cc1 (configuration not stated)	i
CC(=O)Nc1ccc(N=Cc2nc(-c3ccc(C)cc3)oc2O)cc1	0.3
CC(C)CC(=O)Nc1ccccc1Oc1ccccc1	1.3
O=C(NCc1ccncc1)c1nnc(Cc2c(F)cccc2Cl)o1	0.8
O=C(CCSCCc1ccncc1)NCCCN1CCOCC1	0.3
CC(=O)Nc1ccc2c(c1)nc(CCN1CCOCC1)n2C	i
Cc1nc2ccc(S(=O)(=O)NC(C(=O)NCc3cccs3)C(C)C)cc2s1 (configuration not stated)	i
Oc1c(Cl)cccc1C=Nc1cc(C(F)(F)F)ccc1N1CCCC1	i
CCOC(=O)N1CCN(S(=O)(=O)/C=C/c2ccccc2)CC1	1.2
COc1cc(CNc2ccc3[nH]c(=O)[nH]c3c2)cc(Br)c1OCC(=O)NC(C)(C)C	0.1
Cc1c(C(=O)O)oc2ccc(S(=O)(=O)NCc3ccc4c(c3)OCO4)cc12	1.5
O=C(CN1C(=O)c2ccccc2C1=O)Nc1ccccc1C(=O)N1CCCC1	i
CC(=O)C1=C(O)C(=O)N(CCCCCC(=O)O)C1c1ccc(N(C)C)cc1 (configuration not stated)	0.2
CCc1nnc(NC(=O)C(=O)NCCOC(=O)c2ccccc2Cl)s1	i
Cc1ccc(-c2nnc(SCC(=O)Nc3ccccc3F)o2)cc1	0.4
CCOC(=O)N1CCN(c2c(N3CCN(c4cccc(C)c4C)CC3)c(=O)c2=O)CC1	0.2
O=c1[nH]nc(Cc2ccc(-c3ccc(Cl)cc3)o2)c2ccccc12	1.6
CCN(CC)C(=O)C(=O)N/N=C/c1ccc(Br)cc1	0.9
CCN(CC)c1ccc(/C=N/Nc2ccccc2)c(O)c1	i

An excerpt from above in order of molar mass, lowest first.
SMILES	H5N1 CPE
CC(C)CC(=O)Nc1ccccc1Oc1ccccc1	1.3
CCN(CC)c1ccc(/C=N/Nc2ccccc2)c(O)c1	i
CC(=O)Nc1ccc2c(c1)nc(CCN1CCOCC1)n2C	i
CCN(CC)C(=O)C(=O)N/N=C/c1ccc(Br)cc1	0.9
CC(=O)Nc1ccc(N=Cc2nc(-c3ccc(C)cc3)oc2O)cc1	0.3
O=c1[nH]nc(Cc2ccc(-c3ccc(Cl)cc3)o2)c2ccccc12	1.6
Cc1ccc(-c2nnc(SCC(=O)Nc3ccccc3F)o2)cc1	0.4
O=C(NCc1ccncc1)c1nnc(Cc2c(F)cccc2Cl)o1	0.8
CCOc1ccc(N2CC(C(=O)N3CCc4ccccc4C3)CC2=O)cc1 (configuration not stated)	i
Oc1c(Cl)cccc1C=Nc1cc(C(F)(F)F)ccc1N1CCCC1	i
CC(=O)C1=C(O)C(=O)N(CCCCCC(=O)O)C1c1ccc(N(C)C)cc1 (configuration not stated)	0.2
O=C(CN1C(=O)c2ccccc2C1=O)Nc1ccccc1C(=O)N1CCCC1	i
CCc1nnc(NC(=O)C(=O)NCCOC(=O)c2ccccc2Cl)s1	i
Cc1c(C(=O)O)oc2ccc(S(=O)(=O)NCc3ccc4c(c3)OCO4)cc12	1.5
Cc1nc2ccc(S(=O)(=O)NC(C(=O)NCc3cccs3)C(C)C)cc2s1 (configuration not stated)	i
CCOC(=O)N1CCN(c2c(N3CCN(c4cccc(C)c4C)CC3)c(=O)c2=O)CC1	0.2

The list goes on.
SMILES	H5N1 CPE
Cc1ccc(C)c(NC(=O)C(C)CC2COCCO2)c1 (configuration not stated)	0.3
CCCCCn1c(S(=O)(=O)O)nc2ccccc21	i
CC(=O)Nc1nc(C)c(Cc2ccccc2)c(=O)[nH]1	i
CCn1c(=O)cc(SCC(=O)N2CCN(C(=O)c3ccco3)CC2)c2ccccc21	3.8
COc1ccc(-n2nc(C(=O)NCC(=O)Nc3ccccn3)c3ccccc3c2=O)cc1	i
CCOC(=O)N1CCC(c2cc(=O)n3[nH]ccc3n2)CC1	4.4
O=C(Nc1ccccc1)C(Cc1cccs1)c1nn[nH]n1 (configuration not stated)	i
COc1ccc(N2CCN(c3nc(NCCc4ccc(OC)c(OC)c4)nc(OC)n3)CC2)cc1	i
O=C(NCCCC(=O)N1CCOCC1)c1cccnc1	1.4
COc1ccc(C(NC(=O)c2ccc(-c3ccccc3)cc2)c2ccccc2)cc1 (configuration not stated)	1.9
O=C(CSc1nc2ccccc2n1CC(=O)N1CCCC1)Nc1nccs1	1.6
COc1ccccc1-c1c(C(F)(F)F)oc2cc(OC(=O)c3cccc([N+](=O)[O-])c3C)ccc2c1=O	7.9
Cc1c(NC(=O)c2cc3ccccc3oc2=O)c(=O)n(-c2ccccc2)n1C	i
COc1ccc(S(=O)(=O)NCCC(=O)NCc2cccs2)cc1	0.9
C=CCn1c(SCc2ccccc2C#N)nnc1-c1ccccc1O	0.5
CCNc1nc2nonc2nc1NCC	i
CCOC(=O)C1CCN(C(=O)c2cnn3c(C)cc(C)nc23)CC1	i
O=C1CC(C(=O)Nc2ccc(C(=O)O)cc2)C(c2ccccc2)O1 (configuration not stated)	i
Cn1ccnc1SCc1ccc([N+](=O)[O-])cc1	0.1
COc1cccc(OC)c1C(=O)NC(=S)N1CCN(c2ccc(C(F)(F)F)cc2[N+](=O)[O-])CC1	0.3
CCOc1ccc(-c2[nH]ncc2Oc2ccccc2OCC)c(O)c1	0.5
Nc1cc(N)nc(SCc2cccnc2)n1	i
CCn1c(O)c(C=Nc2ccc(N3CCOCC3)c(Br)c2)c(=O)n(CC)c1=S	i
Cc1ccccc1Cn1nc(C)c(NC(=O)c2cc(-c3cccs3)on2)c1C	i
COc1ccc(C(=O)N/N=C/c2ccc3cccc(OCc4ccccc4)c3n2)cc1	2.3
CC(=O)c1cnc2nc(C)nn2c1C	1.0
Cc1ccc(N2C(=O)NC(=O)C3(Cc4ccccc4N4CCCC43)C2=O)cc1 (configuration not stated)	0.2
CCOc1ccc(S(=O)(=O)NCCCN2CCOCC2)c2ccccc12	0.8
CCOc1ccccc1Nc1nnc(SCC(=O)Nc2cc(C)on2)s1	i
CC(=O)Nc1ccc(S(=O)(=O)N(C)S(=O)(=O)c2ccc(F)cc2)cc1	0.6
COc1cc(C(=O)Nc2cc(C(F)(F)F)ccc2Cl)cc(OC)c1OC	i
COc1ccc(NC(=O)CCNC(=O)Cn2cnc3ccccc3c2=O)c(OC)c1	i
Cc1ccc(OCc2nnc(NC(=O)c3ccco3)s2)c(C)c1	2.4
Oc1ccc(C(=S)N2CCCCC2)cc1	i
NC(=O)CSc1nnc(-c2cc3ccccc3o2)n1Cc1ccccc1	1.2
CCOC(=O)C(C)Sc1nnc(Cc2cc(=O)[nH]c(=O)[nH]2)n1-c1cccc(OC)c1 (configuration not stated)	5.1
Cc1cc(C)nc(N2CCCC(C(=O)NCCc3ccc(F)cc3)C2)n1 (configuration not stated)	0.5
CNc1ccc(C(O)(C(F)(F)F)C(F)(F)F)cc1C(O)(C(F)(F)F)C(F)(F)F	0.5
Cc1ccc(C(=O)c2c[nH]c(C(=O)NCCCN3CCOCC3)c2)cc1	0.4
NC(=O)C(c1ccc(Cl)cc1Cl)c1ncc(C(F)(F)F)cc1Cl (configuration not stated)	0.1
O=C(CSc1ccc2nnc(-c3ccccn3)n2n1)NCC1CCCO1 (configuration not stated)	1.9
COc1cc(Cl)c(S(=O)(=O)NCc2ccccn2)cc1Cl	i
COC(=O)[C@H](C)NC(=O)NCc1ccccc1F	0.2
CCn1c(SCC(=O)N2CCN(c3ccc(Cl)cc3)CC2)nc2ccccc2c1=O	1.2
COc1ccccc1C(=O)Oc1ccc(N2C(=O)CCC2=O)cc1	i
CN(C)CCNC(=O)NC1CCCCC1	0.1
CCOC(=O)c1sc(NC(=O)CSc2nc(C)cc(C)n2)c(C#N)c1C	1.2
CCOC(=O)N1CCC(NC(=O)c2cc3cc4cc(OC)ccc4nc3o2)CC1	1.2
CCC(=NCc1cccnc1)c1c(O)n(C2CCCCC2)c(=O)[nH]c1=O	2.5
CS(=O)(=O)N(CC(=O)N1CCCC1)c1cccc(Cl)c1	i
COc1ccc(/C(C)=N/NC(=O)c2nc(C)cc(C)n2)cc1	0.4
COc1ccc(N=C2S/C(=C\c3ccc(N4CCOCC4)o3)C(=O)N2CCc2c[nH]c3ccccc23)cc1	i
CCOc1ccc(/C(O)=C2\C(=O)C(=O)N(CCOCCO)C2c2ccccc2OC)cc1 (configuration not stated)	i
Cc1ccc(C23CC4CC(CC(NC(=O)NCCN(C)C)(C4)C2)C3)cc1	i
O=C(COc1ccc2c(c1)OCO2)Nc1ccc2c(c1)oc1ccccc12	i
Cc1ccccc1-c1noc(C2CCCCC2)n1	0.0
COC(=O)c1c(NC(=O)CSc2nncs2)sc2c1CCCCC2	i
O=C(NCCn1cccc1)c1cccc2ccccc12	1.7
CCn1nc([N+](=O)[O-])c(C(C#N)c2nc3cc(C(F)(F)F)ccc3s2)c(Cl)c1=O (configuration not stated)	i
CCCCCN(C(=O)NC(=O)NCCCC)S(C)(=O)=O	i

Later entries
SMILES	H5N1 CPE
C/C(=C\c1ccco1)C1C(C#N)=C(N)Oc2n[nH]c(-c3ccccc3)c21 (configuration not stated)	i
Clc1cc2nc3ccccn3c2cc1Cl	3.2
CCC(C)NC(=O)c1cnn2c1NC(c1cccs1)CC2C(F)(F)F (configuration not stated)	0.4
Cc1cc(Nc2ccc(Br)cc2)n2nc(C)nc2n1	1.1
Cc1cccnc1NC(=O)C(C)Oc1ccccc1 (configuration not stated)	0.2
CCCNc1cc(=O)n(C)c(=O)n1C	0.8
Cc1cc(C)nc(SCc2ccccc2C#N)n1	i
Cc1ccc(C(=O)N/N=C/c2ccc([N+](=O)[O-])s2)cc1	2.5
c1ccc(CSc2nnc(-c3c[nH]c4ccccc34)o2)cc1	i
Cc1ccc(-n2c(C)cc(/C=C(\C#N)C(=O)NCC3CCCO3)c2C)cc1 (configuration not stated)	0.1
COCC(C)n1c(C)cc(C(=O)COC(=O)c2n[nH]c3ccccc23)c1C (configuration not stated)	i
O=C(NCc1ccco1)c1ccc(CN2CCOCC2)cc1	i
O=c1ccc(Br)c[nH]1	i
CN(CCOc1ccc(-c2ccn(S(=O)(=O)c3ccc(Cl)cc3)n2)cc1)c1ccccn1	0.4
CC1(C)CC(=O)c2c(O)cc(OCc3ccc(Br)cc3)cc2O1	i

Screens: PubChem, SRMLSC
